D2 potentiator: potentiates the human D2 dopamine receptor allosterically; 360,000 tested, 0.23% active; potentiation, % (test concentration not listed); DiscoveRx D2 beta-arrestin cells, luminescence, 90 min; 100% = 57 uM dopamine signal; P14416; active = potentiation of 50% or more; inconclusive = 30% to 50%; inactive = 30% or less;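 also: compound concentration not given in the record; tested on top of an EC20 dose of dopamine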
Target sequence (P14416 whole entry, looked up): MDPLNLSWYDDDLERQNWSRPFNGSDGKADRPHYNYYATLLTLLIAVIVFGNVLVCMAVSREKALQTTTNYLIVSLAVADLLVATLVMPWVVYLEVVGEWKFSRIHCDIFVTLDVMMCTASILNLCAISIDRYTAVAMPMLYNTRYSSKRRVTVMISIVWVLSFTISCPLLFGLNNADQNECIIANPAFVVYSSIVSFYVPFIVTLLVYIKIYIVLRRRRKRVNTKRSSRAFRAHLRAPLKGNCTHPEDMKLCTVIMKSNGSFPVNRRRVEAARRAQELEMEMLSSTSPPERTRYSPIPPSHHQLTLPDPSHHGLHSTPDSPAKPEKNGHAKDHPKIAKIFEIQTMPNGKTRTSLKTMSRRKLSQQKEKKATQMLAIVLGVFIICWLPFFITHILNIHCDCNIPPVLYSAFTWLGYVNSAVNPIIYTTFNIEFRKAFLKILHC
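D2 cells co-treated with compound plus 50 nM dopamine (EC20) for 90 min at 37 deg C to detect potentiation. Beta-arrestin recruitment was read as enzyme-fragment luminescence after 1 h at ambient temperature. Full response was set by 57 uM dopamine.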
CtBP-E1A blk: blocks the CtBP interaction with E1A; AlphaScreen GST-E1A/His-CtBP binding, 1536-well; hits give low values; control for the full effect not named in the record; activity change, % (no concentration beside the values); 340,000 tested, 0.49% active; AID 651724; in the data active means activity change below about -65%; inconclusive means about -30% to -65%; inactive means above about -30%; also: % is scaled to controls: 0 for no effect and ±100 for the full control effect; compound concentration not given in the record
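Protein mix (5X: 125 nM each GST-E1A, His-CtBP) was incubated with pinned compound 2 h at 37 deg C in dark, in 50 mM Tris pH 8.0 buffer with 300 mM NaCl. Glutathione donor and nickel acceptor beads followed; AlphaScreen signal read after 1 h.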
gsp antagonist: antagonizes gsp, the McCune-Albright syndrome mutation | gsp-mutant cells, cAMP HTRF, 30 min; control for the full effect not named in the record | Potency, µM (series often up to 76.9 µM), inactives show top-dose activity change, negative = inhibition, actives largely listed as inhibitors | 340,000 tested, 0.4% active; active = falling curve of any shape with a large fitted effect; inconclusive = falling curve, mostly with a smaller effect; inactive = flat or rising curve; cell line not stated here;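 also: intracellular cAMP measured with PDE inhibitor Ro 20-1724 present during compound exposure; potency is read from the fitted curve at half-maximal effect; % is scaled to controls: 0 for no effect and ±100 for the full control effect; nearly all actives have a fitted effect of over 65% in size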
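HTRF cAMP read-out (cAMP-d2 plus anti-cAMP antibody-K in lysis buffer, 30 min RT). Before lysis, cells are exposed to compounds with […] for 30 min at 37C in DPBS containing Ca/Mg, BSA and Tween 20.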
Six1-Eya2 inh: inhibitors of human Six1/Eya2 interaction. Q15475+O00167. AlphaScreen GST-Six1/His-Eya2 binding, biochemical; hits give low values; control for the full effect not named in the record. activity change, % (no concentration beside the values). 360,000 tested, 0.56% active. AID 651725; in the data active = activity change below about -65%; inconclusive = about -30% to -65%; inactive = above about -30%; also: % is scaled to controls: 0 for no effect and ±100 for the full control effect; compound concentration not given in the record
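Six1/Eya2 binding was read as AlphaScreen signal after compounds were pinned into GST-Six1 plus His-tagged Eya2 (5X stock 250/500 nM) in pH 8.0 Tris/NaCl/TCEP buffer, beads added, then incubated 1 h, 37 C, dark.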
gsp agonist: activates gsp, the McCune-Albright syndrome mutation. 340,000 tested, 0.13% active. Potency, µM (top dose mostly 76.9 µM), for the others: top-dose activation (cAMP increase), hits mostly activators. gsp mutant cells, cAMP HTRF, 30 min; control for the full effect not named in the record; active = well fitted activation curve with a large enough effect; inconclusive = small, poorly fitted or top-dose-only effect, or another doubt; inactive = no such curve, though single readings can be large or run the other way; cell line not stated here;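 also: phosphodiesterase inhibitor Ro 20-1724 added with compounds to block cAMP breakdown; potency is read from the fitted curve at half-maximal effect; nearly all actives have a fitted effect of over 60% in size; about a fifth of the inactives were tested at one dose only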
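Cells in DMEM/10% FBS with G418 were pretreated with compounds in DMSO plus […] (300 uM stock) for 30 min at 37C. cAMP was measured by HTRF (cAMP-d2 plus anti-cAMP antibody-K) after 30 min at room temperature.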
D2 ag: agonists of human D2 dopamine receptor (beta-arrestin) | activation, % (concentration not given with the values) | DiscoveRx PathHunter D2 beta-arrestin, luminescence, 90 min; 100% = 57 uM dopamine signal | 360,000 tested, 0.084% active | AID 624465 | P14416; in the data active = activation above about 40%; inconclusive = about 15% to 40%; inactive = below about 15%; also: compound concentration not given in the record; the text of the record calls up to 30% inactive
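DiscoveRx PathHunter D2 beta-arrestin cells (2,100/well) attached overnight, then compound-stimulated 90 min at 37 C in HBSS/10 mM HEPES/0.1% Tween-20 buffer; beta-galactosidase complementation read by luminescence after 1 h at ambient temperature. Dopamine 57 uM final (EC100) as control.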
* hit, by the source's call; u = inconclusive; x = no result given; [ ] = remark or other dose.

SMILES	D2 potentiator	CtBP-E1A blk	gsp antagonist	Six1-Eya2 inh	gsp agonist	D2 ag
Cc1ccc(Cc2cc(-c3ccc(C)cc3)n[nH]c2=O)cc1	-4.5	-1.8	-5.6%	-2.7	-9.3%[15.4 µM]	-4.9
Cc1ccc(OCCCCNC(C)(C)C)c([N+](=O)[O-])c1	-32.3	-19.1	-10.7%	9.5	-8.6%	-2.1
CC(C)CC(NC(=O)OC(C)(C)C)c1cn([C@@H](CCCCNC(=O)OC(C)(C)C)C(=O)N2CCN(C(=O)OC(C)(C)C)CC2)nn1 (some centres not stated)	7.6	3.7	0.5%	0.4	u	4.2
O=C(Nc1ccccc1)c1cc(S(=O)(=O)N2CCOCC2)cs1	1.1	0.9	-2.1%	3.9	16.7%	1.3
CSc1nc(N)nc2c1ncn2CC(=O)NCCCN1CCCC1=O	-3.5	0.6	7.3%	3.0	x	-0.6
CC1(c2ccc(Cl)cc2Cl)OCC(Cn2ccnc2)O1 (configuration not stated)	0.0	-0.8	-7.5%	8.0	9.1%	0.7
C=CCNC(=O)/C(=C\c1ccco1)NC(=O)c1ccco1	-3.5	1.0	4.2%	-1.2	-0.4%[15.4 µM]	-3.0
Nc1ccc(S(=O)(=O)NCC2CCCCO2)cc1 (configuration not stated)	-3.0	-6.9	2.4%	-13.7	21.3%	-4.7
Cc1ccc(CNC(=O)COC(=O)c2ccc(S(=O)(=O)N(C)C)cc2)cc1	-4.2	4.3	-1.3%	-4.4	u	5.1
COc1ccc(-c2c(-c3cc(OC)cc(OC)c3)n(C)c3ccc(-c4ccc(OC)c(F)c4)cc23)cc1	-12.4	0.0	8.7%	1.7	u	-1.0
O=C(c1cn(-c2ccccc2)nc1-c1ccc(Cl)s1)N1CCOCC1	-29.1	-2.0	8.0%	-0.9	-0.4%	-1.8
CC1(Cc2cccc(C(F)(F)F)c2)C(=O)Nc2c(Cl)ccc(Cl)c21 (configuration not stated)	-9.5	3.9	x	0.8	x	-4.3
CN1CCN(C(=O)c2cc3cc(Cl)ccc3[nH]2)CC1	-8.8	x	13.3%	-0.1	-6.1%	0.3
CC(C)C(=O)Nc1sc2c(c1C(N)=O)CCN(Cc1ccccc1)C2	-12.0	2.0	3.7%	0.8	-2.2%	-7.1
O=C(c1cccnc1)c1cccnc1	-0.7	-0.1	-0.7%	0.8	-13.5%[15.4 µM]	-6.5
CC(C)(C)C(=O)/C=C/Nc1ccccc1O	-4.0	28.0	-3.5%	8.3	u	0.8
Nc1nc(CSc2nnnn2-c2ccc(F)c(Cl)c2)nc(N2CCOCC2)n1	4.7	1.1	-12.7%	-2.8	4.8%	-1.4
Cc1cc(C)c2c(n1)sc1c(-c3ccccc3)c(C#N)c(N)nc12	3.5	1.5	-8.0%	4.0	-51.6%[inhibitor]	-2.3
COc1cc(S(=O)(=O)N2CCOCC2)ccc1NC(=O)COc1ccc(N(C)S(=O)(=O)c2ccc(C)cc2)cc1	-9.1	0.1	-11.6%	-10.0	-34.2%	0.1
CC(C)n1nnnc1-c1ccc(Cl)cc1	-3.7	4.2	3.8%	4.6	15.7%	0.9
CCOc1cc2c(cc1C=O)OC(C)C2 (configuration not stated)	-3.4	4.1	22.0%	-2.3	-22.0%	-2.4
COc1cccc(CNC(=O)CCCC(=O)NC(C)CCc2ccccc2)c1 (configuration not stated)	-12.3	x	-1.6%	-2.5	-41.0%[inhibitor]	-0.3
CC1CCN(S(=O)(=O)c2cccc(C(=O)N(C)C3(C)CCS(=O)(=O)C3)c2)CC1 (configuration not stated)	-7.0	x	-1.5%	1.9	-0.3%	3.6
O=C1C=C(c2cccc3c2sc2ccccc23)C[C@@H](c2ccc(Cl)cc2)C1	-3.9	0.0	-8.9%	12.4	8.2%	-3.2
Cc1ccc2cccc(Oc3cnccn3)c2n1	-4.5	-0.3	15.0%	-0.2	-3.2%	0.2

(listing goes on)
SMILES	D2 potentiator	CtBP-E1A blk	gsp antagonist	Six1-Eya2 inh	gsp agonist	D2 ag
COc1ccccc1N1CCN(S(=O)(=O)CCNC(=O)C2CCCC2)CC1	-2.8	-15.0	-0.9%	16.4	14.3%	-4.2
CC1CCN(C(=O)c2ccc(NC(=O)C3CCCO3)cc2)CC1 (configuration not stated)	3.0	0.7	6.4%	4.3	-2.5%	-0.3
CCOc1ccc(Cc2nnc(SCC(=O)Nc3c(C)cccc3C)[nH]c2=O)cc1	-5.3	-21.5	1.3%	-1.0	1.0%	-1.3
Cc1nc2ccccc2nc1NS(=O)(=O)c1ccc(N)cc1	2.9	1.7	-0.3%	9.2	16.9%	3.1
COc1cc(OC)nc(NC(=O)CCl)n1	-11.9	-7.3	4.3%	2.8	21.7%	-0.7
COC(=O)c1c(NC(=O)CC2SC(N)=NC2=O)sc2c1CCCC2 (configuration not stated)	-4.8	9.8	-16.1%	-3.8	20.9%	-2.0
O=C(CSc1ccc(C(F)(F)F)cc1[N+](=O)[O-])Nc1ccccc1	8.8	14.2	-0.2%	-0.7	-29.2%	3.8
CCOCCCNC(=O)c1ccccc1OC1CCN(S(C)(=O)=O)CC1	1.2	11.2	-3.4%	8.3	-23.7%	-1.8
COc1ccc(-n2c(=O)c3ccccc3n(CC(=O)NC3CCCC3)c2=O)c(OC)c1	-1.5	0.9	4.0%	-1.3	0.0%	-3.3
COc1ccc(S(=O)(=O)N2CCCCCC2)cc1C(=O)N(C)CC(=O)Nc1c(Cl)cccc1Cl	16.2	-3.9	8.4%	-5.3	4.8%	-2.0
Nc1nc(N2CCOCC2)cc(=O)[nH]1	-7.7	-1.6	-2.0%	-1.3	-2.6%	-3.9
CC(C)c1ccc(NC(=O)C2=NNC(=O)CC2)cc1	-14.0	14.3	-35.6%	1.2	-3.3%[15.4 µM]	-2.3
COc1ccc(CN(C)S(=O)(=O)c2nnc(NC(=O)c3ccccc3OC)s2)cc1OC	-8.6	-19.3	u	7.8	27.0%	3.2
O=C1CN(C(=O)COC(=O)c2ccc([N+](=O)[O-])s2)c2ccccc2N1	68.8*	-12.3	-2.5%	-8.9	u	u
O=C(CNc1cccc(S(=O)(=O)N2CCOCC2)c1)N1CCc2ccccc21	-1.5	4.7	-8.6%	14.0	-25.4%	-1.5
CCOC(=O)CCC(=O)Nc1cccc([N+](=O)[O-])c1	-1.9	u	-4.8%	0.9	11.6%	-1.3
O=C(Nc1nc(-c2ccccc2)c(-c2ccccc2)s1)c1ccc(S(=O)(=O)N2CCCC2)cc1	1.5	-11.0	-3.2%	2.5	-4.5%	2.0
Cc1cc(NC(=O)c2ccc(Cn3cc([N+](=O)[O-])cn3)o2)no1	-4.8	1.3	-8.9%	0.7	-23.7%	-1.0
Cc1c(/C(O)=C2/C(=O)C(=O)N(CCN3CCOCC3)C2c2cccs2)cnn1-c1ccccc1 (configuration not stated)	-18.0	-0.1	12.7%	-1.2	u	-4.6
Cc1ccc(S(=O)(=O)N(C)c2ccc(C(=O)NCC(c3cccs3)N3CCOCC3)cc2)cc1 (configuration not stated)	-13.3	19.3	-12.6%	4.5	-62.1%[inhibitor]	-4.6
COc1cccc(C(NC(C)=O)c2nc(-c3ccc4ccccc4c3)cs2)c1 (configuration not stated)	-13.4	0.8	x	-11.9	x	-2.6
CCOc1ccc(C(=O)NC2C(=O)N3C(C(=O)O)=C(COC(C)=O)CSC23)cc1OCC (configuration not stated)	-0.9	5.3	4.5%	-12.0	-47.4%	-6.7
CCN(CC)S(=O)(=O)c1ccc(N/N=C/c2ccc(O)cc2O)nc1	-6.7	-94.5*	10.2%	-93.5*	-37.6%[inhibitor]	-2.8
Cc1nonc1CN(C)C(=O)CC1C(=O)NCCN1Cc1ccccc1F (configuration not stated)	-1.5	1.3	18.5%	0.4	14.6%	-2.9
COc1ccc(C(CNC(=O)C2CC2)N(C)C)cc1 (configuration not stated)	-16.1	2.3	0.4%	-5.5	-6.0%	-5.0

Gathered by group: the entries above containing a furan ring, fused or not
SMILES	D2 potentiator	CtBP-E1A blk	gsp antagonist	Six1-Eya2 inh	gsp agonist	D2 ag
C=CCNC(=O)/C(=C\c1ccco1)NC(=O)c1ccco1	-3.5	1.0	4.2%	-1.2	-0.4%[15.4 µM]	-3.0
Cc1cc(NC(=O)c2ccc(Cn3cc([N+](=O)[O-])cn3)o2)no1	-4.8	1.3	-8.9%	0.7	-23.7%	-1.0

New compounds follow:
SMILES	D2 potentiator	CtBP-E1A blk	gsp antagonist	Six1-Eya2 inh	gsp agonist	D2 ag
O=C(NC(=S)NNC(=O)c1ccc(Cl)cc1Cl)c1cccnc1	-28.2	-9.6	7.1%	0.1	-15.4%	2.4
COc1ccc(CN2C[C@@H](CO)O[C@@H](n3cnc4c(N5CCN(c6ccccc6)CC5)ncnc43)C2)cc1	-10.9	u	x	u	x	2.9
COc1ccc(C(=O)Oc2cc(/C=N/NS(=O)(=O)c3ccccc3)ccc2OC)cc1	-9.6	-0.9	-3.2%	-1.8	8.2%	-1.0
CCOC(=O)c1ccc(-c2ccc(/C=N/NC(=O)c3cncc(Br)c3)o2)cc1	4.8	7.4	10.8%	-11.2	-2.4%[15.4 µM]	1.1
Clc1cccc(Cl)c1Cn1cnc(=NCc2ccco2)c2[nH]cnc21	1.1	-9.9	1.1%	-9.6	-16.3%	0.2
COc1ccc(-n2ncc3c2CC(C)(C)CC3NC(=O)c2ccoc2C)cc1 (configuration not stated)	-6.8	-1.8	u	-6.9	-34.1%[inhibitor]	1.5
O=C1CNC(=O)N1	5.0	1.8	-0.3%	-3.0	x	-4.9
Nn1c(SCC(=O)Nc2ccc(Oc3ccccc3)cc2)nnc1C1CC1	-7.1	5.8	1.4%	1.3	-62.0%[inhibitor]	-1.3
CC1Cc2cc(-c3csc(NC(=O)Cc4cccs4)n3)ccc2N1S(C)(=O)=O (configuration not stated)	12.5	2.6	-36.5%	-10.1	-8.9%	2.0
COc1ccc(S(=O)(=O)N2CCCCCC2)cc1C(=O)N(C)Cc1ccc(C)cc1	-14.8	3.9	-33.6%	-1.5	-3.8%	1.9
COc1ccc([N+](=O)[O-])cc1NC(=O)CSCc1ccccc1C	-13.0	-9.9	-6.4%	-4.1	18.9%	0.0
O=C(CSc1nc(-c2ccc(F)cc2)nc2c1Cc1ccccc1O2)Nc1cccc(C(=O)O)c1	-4.9	6.2	-1.6%	u	29.2%	-1.6
O=C(CCc1nnc2n(Cc3ccc(F)cc3)c(=O)c3ccccc3n12)NCCN1CCOCC1	-6.9	-1.6	8.0%	-2.4	10.6%	1.4
COc1ccc(CCN2CCCn3c2nc2c3c(=O)n(C)c(=O)n2C)cc1OC	0.8	-7.9	-8.1%	-18.2	-2.7%	-3.3
CCc1nnc(NC(=O)c2cccc(OC)c2)s1	-1.8	-7.3	-2.4%	14.3	-14.0%	0.3
CCN(CC)CCNC(=O)Cn1c(-c2ccccn2)nc2ccccc21	-5.5	2.2	8.7%	0.6	-13.0%	-2.1

High-throughput results: PubChem, National Center for Advancing Translational Sciences (NCATS)
